Hsc70 ATP site: small molecules displacing fluorescent ligand from Hsc70 – biochemical, fluorescence polarization, primary screen (AID 568) | Hsc70 fluorescence polarization, probe displacement; higher % means a stronger effect; strong numbers were not always called active | displacement, % at 20 µM, or IC50 in µM where a hit was titrated | 83,000 tested, under 10 active;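 active = displacement above 50% without optical interference and an IC50 on retest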;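 also: ATPase domain with a fluorescein-tagged ATP probe; 0% = vehicle and 100% = excess ADP; read after one hour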
MT1-MMP promoter: inhibitors of MT1-MMP promoter transcription, cell-based, luciferase reporter, luminescence (AID 618); MT1-MMP promoter luciferase reporter cells, luminescence; calls from a first round at 10 µM; hits with a dose series show EC50 in µM; actives 0.62% (n = 87,000);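 active = over half of the reporter light lost at 10 µM or EC50 under 50 µM; inactive = the rest and hits that failed the dose series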;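 also: actives suppress MT1-MMP promoter-driven transcription so potencies describe inhibitors; HT1080 fibrosarcoma cells; overnight exposure; toxic or luciferase-blocking compounds were not removed from the actives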
WNV NS2B-NS3 inh: blocks West Nile virus NS2B-NS3 protease activity. P06935. WNV NS2B-NS3 protease, fluorogenic substrate Ex360/Em465; hits give low values. z-score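 (tested at a level between 10 and 100 µM)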. actives 0.18% (n = 65,000). AID 577;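 active = z-score at -3 or under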;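 also: score is relative to mean and spread of the compound wells of a plate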
Target sequence (P06935 1371-1501 limits assumed): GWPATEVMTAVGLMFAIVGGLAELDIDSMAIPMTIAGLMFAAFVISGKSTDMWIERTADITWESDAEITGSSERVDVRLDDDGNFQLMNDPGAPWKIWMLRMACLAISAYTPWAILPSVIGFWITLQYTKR
Target sequence (P06935 1502-1679 limits assumed): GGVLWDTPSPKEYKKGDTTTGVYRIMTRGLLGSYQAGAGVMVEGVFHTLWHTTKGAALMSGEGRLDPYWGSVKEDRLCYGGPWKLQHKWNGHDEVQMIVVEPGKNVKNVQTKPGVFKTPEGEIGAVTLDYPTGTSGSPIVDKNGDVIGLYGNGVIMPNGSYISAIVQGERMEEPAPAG
Active calls of the source: *; i = inactive; · = not tested or not shown. Some of the compounds tested; count on the stated rates, not on these rows.

SMILES	Hsc70 ATP site	MT1-MMP promoter	WNV NS2B-NS3 inh
O=C(NCc1ccncc1)Nc1ccccc1Cl	-8.0%	i	-1.62
COC(=O)C1CCN(C(=O)COC(=O)Cc2c[nH]c3ccccc23)CC1	0.4%	i	-0.43
CC1=C(C(=O)N2CCOCC2)C(c2ccccc2F)C2=C(CCCC2=O)N1 (stereo unspecified)	1.6%	i	2.03
COCCN(Cc1cc2cc3c(cc2n2nnnc12)OCO3)C(=O)c1ccccc1F	-12.2%	i	-1.03
CCOc1cc(S(=O)(=O)N2CC=C(c3ccc(F)cc3)CC2)c(OCC)cc1-n1cnnn1	-7.2%	i	0.68
CC(C)OC(=O)CN1C(=O)C(=O)c2ccccc21	0.7%	i	·
C=CCn1c(SCc2csc(C)n2)nc2sc3c(c2c1=O)CCC(C)C3 (stereo unspecified)	-6.8%	i	·
CC1CCCCN1C(=O)Cc1ccc(Cl)cc1 (stereo unspecified)	-1.0%	i	-0.22
O=C1NCCc2c1[nH]c1c(Cl)ccc(Cl)c21	-3.7%	i	-1.16
CCOC(=O)C1CCN(c2nc3ccccc3nc2C(C#N)C(=O)NCCc2ccccc2)CC1 (stereo unspecified)	-12.3%	i	-0.26
CCOC(=O)N1CCC(NC(=O)CCc2c(C)nc3c(c(C)nn3C(C)(C)C)c2C)CC1	2.0%	i	-1.61
CC(C)(C)NS(=O)(=O)c1ccc(CCC(=O)Nc2ccc3c(c2)OCO3)cc1	6.6%	i	·
CC1(C)Cc2c(cnn2-c2ccccc2)C(=O)/C1=N\NC(=O)c1ccncc1	1.7%	i	·
Cc1cc(N2CCOCC2)nc(SCC(=O)c2ccccc2)n1	6.2%	i	0.42
O=C(CSc1nnc(-c2ccccc2O)o1)Oc1ccc(OCc2ccccc2)cc1	2.3%	i	-0.87
O=C(c1ccco1)N1CCN(C(c2ccccc2F)c2nnnn2CC2CCCO2)CC1 (stereo unspecified)	-2.6%	i	0.68
Cc1ccc2nc(SCC(=O)NCc3ccco3)c(C#N)cc2c1	-4.1%	i	1.04
CCOc1ncccc1C(=O)Nc1cccc(C(=O)Nc2cccc(S(=O)(=O)CCO)c2)c1	-6.1%	i	0.42
COc1ccc(-c2[nH]nc3c2C(c2ccoc2)C(C#N)=C(N)O3)cc1 (stereo unspecified)	5.3%	i	·
Cc1oc(-c2ccccc2)nc1CS(=O)CC(=O)N1CCc2ccccc2C1 (stereo unspecified)	-0.9%	i	-0.91

Given in markdown: 4 of the compounds above
| structure | Hsc70 ATP site | MT1-MMP promoter | WNV NS2B-NS3 inh |
| --- | --- | --- | --- |
| Cc1cc(N2CCOCC2)nc(SCC(=O)c2ccccc2)n1 | 6.2% | i | 0.42 |
| O=C(CSc1nnc(-c2ccccc2O)o1)Oc1ccc(OCc2ccccc2)cc1 | 2.3% | i | -0.87 |
| O=C(c1ccco1)N1CCN(C(c2ccccc2F)c2nnnn2CC2CCCO2)CC1 (stereo unspecified) | -2.6% | i | 0.68 |
| Cc1ccc2nc(SCC(=O)NCc3ccco3)c(C#N)cc2c1 | -4.1% | i | 1.04 |

Other entries:
SMILES	Hsc70 ATP site	MT1-MMP promoter	WNV NS2B-NS3 inh
CCn1c(SCC(=O)Nc2ccc(S(=O)(=O)Nc3onc(C)c3C)cc2)nnc1-c1ccccc1	-1.4%	i	·
CCCN1C(=O)/C(=C2\SC(N3CCCCC3)=NC2=O)c2ccccc21	0.7%	i	1.57
CCNc1ccc(Br)cc(C(=O)/C=C/c2ccccc2Cl)c1=O	-9.5%	i	·
COC(=O)c1[nH]c2cccc(C)c2c1NC(=O)CN1CCN(c2ccccc2OC)CC1	-0.7%	i	0.51
CC(=O)Nc1ccc(S(=O)(=O)N2CCSC2c2ccc(C)cc2)cc1 (stereo unspecified)	5.1%	i	1.6
c1cc2c(cc1C1CCCCC1)c1c3n2CCN=C3CCC1	0.1%	i	·
Cc1ccc(CNC(=O)C(=O)NCCCn2ccnc2)cc1	-0.6%	i	·
CC(CCc1ccc(O)cc1)N(C)CCc1ccccc1 (stereo unspecified)	-1.4%	i	1.5
CC(C)CCNC(=O)c1cccc(Cl)c1	7.0%	i	-0.07
O=C1OCCC1Sc1nnc(-c2ccc(O)cc2)o1 (stereo unspecified)	-1.5%	i	·

Gathered by group, the entries above with a tert-butyl group
SMILES	Hsc70 ATP site	MT1-MMP promoter	WNV NS2B-NS3 inh
CCOC(=O)N1CCC(NC(=O)CCc2c(C)nc3c(c(C)nn3C(C)(C)C)c2C)CC1	2.0%	i	-1.61
CC(C)(C)NS(=O)(=O)c1ccc(CCC(=O)Nc2ccc3c(c2)OCO3)cc1	6.6%	i	·

Additional compounds follow.
SMILES	Hsc70 ATP site	MT1-MMP promoter	WNV NS2B-NS3 inh
CCCC(=O)Nc1cc(C)c(NC(=O)C23CC4CC(CC(C4)C2)C3)cn1	3.8%	i	1.18
Cc1c(-c2ccc(F)cc2)[n+](=O)c(-c2ccc(F)cc2)c(C)n1[O-]	-1.3%	i	·
Cc1ccc(-c2csc3ncnc(NCCN4CCOCC4)c23)cc1	3.6%	i	·
CCOC(=O)N1CCN(C(=O)CC(C(=O)N2CCc3ccccc32)n2ccnc2)CC1 (stereo unspecified)	-2.8%	i	0.58
COc1ccc(NC(=O)Cn2nnc(C(=O)NCc3ccccc3OC)c2N)cc1Cl	1.4%	i	1.23
COc1ccc(NC(=O)CC2C(=O)N(c3ccc(OC)cc3)C(=O)N2CCN2CCN(C)CC2)cc1 (stereo unspecified)	2.8%	i	-0.9
Cn1ccnc1SCC(=O)Nc1cccc(O)c1	2.5%	i	·
CCOC(=O)Cn1nnnc1CN(Cc1cccs1)Cc1cc2cc(C)ccc2[nH]c1=O	-1.3%	i	·
COC(=O)Cc1cc(=O)n(-c2nc3ccccc3s2)[nH]1	0.1%	i	-0.24
COc1ccc(OC)c(N(CC(=O)NCc2ccncc2)S(C)(=O)=O)c1	-4.7%	i	·
O=C(Nc1cccnc1)c1cccnc1	-2.0%	i	-0.12
CC1(C)c2ccccc2N2CCC(=O)NC21/C=C/c1ccco1 (stereo unspecified)	-87.0%	i	-0.1
c1cn(C23CC4CC(CC(C4)C2)C3)cn1	4.1%	i	-0.12
O=C(/C=N/O)Nc1ccc(F)cc1	-2.2%	i	2.39
CCOc1ccc(C(=O)Nc2cc(C)c3c(=O)oc4ccccc4c3n2)cc1	-22.8%	i	0.23
COc1ccc(CCN2C(=O)CC(N3CCN(c4ccccn4)CC3)C2=O)cc1OC (stereo unspecified)	-6.7%	i	-0.41
O=C(OCc1ccc2c(c1)OCO2)c1cccc(S(=O)(=O)N2CCCCC2)c1	-1.8%	i	·
CCOC(=O)N1CCC(NC(=O)C(CC(C)C)NC(=O)C2CCCCC2)CC1 (stereo unspecified)	1.9%	i	-0.39
CC1CCCN(C(=O)C2CCN(S(=O)(=O)c3cccc4cccnc34)CC2)C1 (stereo unspecified)	3.4%	i	1.2
CCOC(=O)/C(C#N)=C1/C=Cc2ccccc2N1CC	1.1%	i	-1.3

Gathered by group, the compounds so far containing a cyano group (4)
SMILES	Hsc70 ATP site	MT1-MMP promoter	WNV NS2B-NS3 inh
CCOC(=O)C1CCN(c2nc3ccccc3nc2C(C#N)C(=O)NCCc2ccccc2)CC1 (stereo unspecified)	-12.3%	i	-0.26
Cc1ccc2nc(SCC(=O)NCc3ccco3)c(C#N)cc2c1	-4.1%	i	1.04
COc1ccc(-c2[nH]nc3c2C(c2ccoc2)C(C#N)=C(N)O3)cc1 (stereo unspecified)	5.3%	i	·
CCOC(=O)/C(C#N)=C1/C=Cc2ccccc2N1CC	1.1%	i	-1.3

(next part)
SMILES	Hsc70 ATP site	MT1-MMP promoter	WNV NS2B-NS3 inh
NC(=O)CN1CCOCCOCCN(CC(N)=O)CCOCCOCC1	-0.6%	i	·
COCCN(Cc1cc2cc3c(cc2[nH]c1=O)OCO3)C(=O)c1cccs1	-5.0%	i	-0.98
Cc1cc(N2C(=O)CC(N3CCN(C(c4ccccc4)c4ccccc4)CC3)C2=O)no1 (stereo unspecified)	0.3%	i	-0.73
Cc1ccc(NC(=O)Nc2ccc(C(=O)N3CCOCC3)cc2)cc1	1.1%	i	·
Cc1[nH]n(-c2ccccc2)c(=O)c1-c1cccc(Cl)c1	3.2%	i	·
CCC(c1nnnn1CS(=O)(=O)c1ccc(C)cc1)N1CCN(c2nc3ccccc3s2)CC1 (stereo unspecified)	-22.7%	i	-0.33
CCCNC(=O)c1cc(S(=O)(=O)N2CCc3ccccc32)ccc1F	-0.1%	i	-0.19
CCOc1ccc(N(CC(=O)Nc2ccc3c(c2)OCCO3)S(=O)(=O)c2c(C)noc2C)cc1	-1.0%	i	-1.26
Cc1ccc(/C=N/n2c(C)nnc2C)s1	3.0%	i	-0.63
O=C(c1cc(-c2ccc(Cl)c(Cl)c2)on1)N1CCCC1	0.0%	i	0.47
O=C(NC1CC2CCCC(C1)N2S(=O)(=O)c1ccccc1)c1ccco1 (stereo unspecified)	-3.6%	i	·
CCC1CCC2(CC1)NC(CO)(CO)CO2 (stereo unspecified)	3.6%	i	1.21
CCc1cc2c(NCCC(=O)O)ncnc2s1	1.7%	i	-0.66
O=C(CSc1nnc(-c2ccccc2)n1Cc1ccco1)Nc1ccc(S(=O)(=O)N2CCCC2)cc1	1.3%	i	·
Cn1c(SCc2ccccc2)nnc1-c1ccc2c(c1)OCO2	3.1%	i	-1.23
Cc1ccc2cccc(OCC(=O)NCc3ccco3)c2n1	6.9%	i	0.27
CCOc1ccc2nc(SC(C)C(N)=O)[nH]c2c1 (stereo unspecified)	-6.8%	i	0.95
CCc1nc(SCc2cccnc2)c2c(=O)n(C)c(=O)n(C)c2n1	2.6%	i	1.26
CC(=O)N1CC2(CC(=O)OC(C)C)CN(C(C)=O)CC(CC(=O)OC(C)C)(C1)C2=O	1.5%	i	0.97
CCNc1ccc2c(Cl)cc(=O)oc2c1	-0.7%	i	-0.26
COC(=O)c1ccc(C2c3c(oc4ccc(F)cc4c3=O)C(=O)N2CCO)cc1 (stereo unspecified)	7.9%	i	-1.01
O=C(Nc1ccc(N2CCCCC2)c(Cl)c1)c1cccnc1	-8.4%	i	-0.03
COc1cc(C2/C(=C(/O)c3ccc(OCC(C)C)cc3)C(=O)C(=O)N2CCN(C)C)ccc1O (stereo unspecified)	-6.4%	i	-0.45
Cc1nnc(SCCn2c(N3CCCCCC3)nc3c2c(=O)[nH]c(=O)n3C)s1	-1.0%	i	0.44
CCN(c1ccccc1)S(=O)(=O)c1ccc(NC(=O)C(C)(C)C)cc1	-2.4%	i	·
CC(C)(C)C(=O)c1cn(CC(=O)NCc2ccc3c(c2)OCO3)c2ccccc12	4.5%	i	·
Cc1ccc(-c2nc3ncccc3o2)cc1NC(=O)c1cc2ccccc2o1	-2.3%	i	-0.83
COc1cccc(Nc2nc(-c3sc(N)nc3C)cs2)c1	-1.3%	i	0.34
COc1ccccc1Nc1ncc(C(C)=O)c(C)n1	-1.2%	i	-0.9
Cc1ccc(CN2C(=O)CCC2C(=O)NCCN2CCN(c3cccc(Cl)c3)CC2)cc1 (stereo unspecified)	-4.8%	i	1.6
O=C(c1ccccc1)N1CCCCC(S(=O)(=O)c2ccc3ccccc3c2)C1=O (stereo unspecified)	4.4%	i	·
Cc1oc2c(CN(C)C)c(O)ccc2c(=O)c1-c1cscn1	3.9%	i	0.89
CN(N)C(=S)NCc1ccccc1	4.1%	i	·
CCN1CCN(C(=O)c2ccc3c(c2)N(Cc2ccc(F)cc2)C(=O)c2ccccc2S3=O)CC1 (stereo unspecified)	1.1%	i	-0.72
Cc1ccc(C(=O)CCNc2cccc(Br)c2)o1	-3.5%	i	0.56
Cc1ccccc1NC(=O)COc1nsnc1N1CCOCC1	2.8%	i	·
COc1ccc(C)cc1NC(=O)C1C2C=CC(C2)C1C(=O)O (stereo unspecified)	-4.1%	i	0.51
COc1ccc(CN(CCN2CCOCC2)C(=O)c2c(F)cccc2F)cc1OC	-3.7%	i	0.15
CCN1CCCC1CNC(=O)c1cn(C)c2ccc(S(=O)(=O)N3CCCCCC3)cc2c1=O (stereo unspecified)	0.3%	i	-0.78
COCC(O)CSc1c([N+](=O)[O-])nc(C)n1Cc1ccc(OC)c([N+](=O)[O-])c1 (stereo unspecified)	0.2%	i	·
CCCn1c(SCC(=O)c2cc(C)c(C)cc2C)n[nH]c1=O	2.2%	i	·
CSC1=NCCN1C(=O)c1ccco1	4.1%	i	0.12
CCCSc1nnc2nc3c(nn12)c1ccccc1n3C	5.9%	i	-1
COC(=O)C1C(=O)NC(SC)=C(C#N)C1c1ccccc1F (stereo unspecified)	-3.1%	i	0.15
Cc1ccccc1N1CCN(Cc2c(C#N)c3ccccc3n2C)CC1	2.2%	i	-1.92
COc1cc(C(Nc2ccc3c(c2)OCO3)C(=O)NC2CCCCC2)cc(OC)c1OC (stereo unspecified)	-2.8%	i	0.49
CC(C)n1c(SCc2cc(=O)[nH]c3ccccc23)nc2c1c(=O)n(C)c(=O)n2C	-0.5%	i	-0.17
O=C(c1ccc(CS(=O)(=O)Cc2ccc(Cl)cc2)o1)N1CCCC1	3.7%	i	-0.79
NC(=O)COC(=O)CNC(=O)c1ccc(Cl)cc1	1.1%	i	1.18
COc1ccc(C2N(c3cc(C)on3)C(=O)C3CCCN32)cc1OC (stereo unspecified)	-1.2%	i	2.25
CCOC(=O)C(NC(=O)c1ccccc1)(Nc1cc(C)on1)C(F)(F)F (stereo unspecified)	-0.8%	i	-0.57
C=CCOC(=O)C1=C(C)OC(N)=C(C#N)C1c1c(C)nn(-c2ccccc2)c1Cl (stereo unspecified)	-8.7%	i	-1.11
